Screens: PubChem, National Center for Advancing Translational Sciences (NCATS)
NS1 function inh = qHTS Assay for Inhibitors of Influenza NS1 Protein Function. S. cerevisiae slowed by influenza A NS1, growth recovery by OD600. Potency, µM (titrated, usually from 46.1 µM), for inactives: top-dose activity, positive = more growth. hit rate 0.4% among 270,000. AID 2326, 2010; active means well fitted rising curve with a large enough effect; inconclusive means small, poorly fitted or top-dose-only effect; inactive means no such curve, though single readings can be large or run the other way; also: nearly all actives have a fitted effect of over 50% in size
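S. cerevisiae expressing influenza A NS1, grown in glucose, washed, then diluted 1:100 into pH 6.0 -URA galactose medium with 23 nl compound. Growth recovery read as OD600; NS1-free strain serves as control.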
StopGo reporter = High Throughput Screening for Foot and Mouth Disease Virus Antivirals | human cells with a luciferase reporter of 2A StopGo recoding; control for the full effect not named in the record | AID 1159524, 2015 | Potency, µM (titrated, usually from 57.9 µM), inactives show at the top dose signal change, negative = less light | hit rate 1.2% among 410,000; active = well fitted falling curve with a large enough effect; inconclusive = small, poorly fitted or top-dose-only effect; inactive = no such curve, though single readings can be large or run the other way; tested in HEK293T cells; also: % is scaled to controls: 0 for no effect and ±100 for the full control effect; nearly all actives have a fitted effect of over 45% in size; luciferase light after 4 h
Cruzain noTriton = qHTS Assay for Promiscuous and Specific Inhibitors of Cruzain (without detergent); purified cruzain, Z-FR-AMC fluorescence, no detergent; Potency, µM, without a hit: max response, negative = inhibition, hits mostly inhibitors; AID 1476, 2009; hit rate 2.3% among 200,000; Cruzipain (Trypanosoma cruzi), P25779;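 also: plate controls were enzyme without inhibitor for no effect and buffer without enzyme for full effect; nearly all actives have a fitted effect of over 40% in size; top concentration of the series not given in the record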
Target sequence (P25779 123-467 limits assumed): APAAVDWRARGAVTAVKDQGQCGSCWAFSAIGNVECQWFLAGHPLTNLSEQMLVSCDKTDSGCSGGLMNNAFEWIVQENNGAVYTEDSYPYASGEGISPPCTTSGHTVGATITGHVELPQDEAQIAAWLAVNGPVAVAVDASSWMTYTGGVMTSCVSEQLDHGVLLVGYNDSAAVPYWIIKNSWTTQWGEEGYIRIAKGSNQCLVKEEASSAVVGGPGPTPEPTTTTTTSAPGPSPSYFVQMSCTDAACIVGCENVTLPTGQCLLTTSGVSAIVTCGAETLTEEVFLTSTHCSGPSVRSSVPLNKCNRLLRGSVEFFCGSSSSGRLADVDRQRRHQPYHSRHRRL
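Purified cruzain at 1.5 nM, pre-incubated 15 min with compound at room temperature in 100 mM sodium acetate pH 5.5, 5 mM DTT, 0.00005% Triton X-100. Reaction started with 2 uM Z-FR-AMC; AMC fluorescence increase over 60 s gives rate.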
SARS PLpro yeast = qHTS of Yeast-based Assay for SARS-CoV PLP | S. cerevisiae expressing SARS-CoV PLpro, growth rescue; control for the full effect not named in the record | Potency, µM (doses to about 32.9 µM), inactives show top-dose activity, positive = growth rescue | AID 485353, 2010 | hit rate 0.19% among 330,000; active means well fitted rising curve with a large enough effect; inconclusive means small, poorly fitted or top-dose-only effect; inactive means no such curve, though single readings can be large or run the other way; also: 0% is about no effect; nearly all actives have a fitted effect of over 55% in size; growth read by luminescence after 48 h
Marburg entry inh = qHTS for inhibitors of binding or entry into cells for Marburg Virus; Potency, µM (series often up to 37.8 µM), for the others: top-dose activity change, negative = inhibition, usual class: inhibitors; AID 540276, 2011; Marburg virus pseudotyped entry inhibition, cell reporter; control for the full effect not named in the record; about a third of the inactives were read at about 46 µM; hit rate 1.8% among 300,000; active = well fitted inhibition curve with a large enough effect; inconclusive = small, poorly fitted or top-dose-only effect, or effect the other way; inactive = flat fitted curve, though single readings scatter; tested in HEK293 cells; about a fifth of its hits are not listed in these tables; also: % is scaled to controls: 0 for no effect and ±100 for the full control effect; luciferase read-out
Cruzain inh Det = qHTS Assay for Promiscuous and Specific Inhibitors of Cruzain (with detergent); Potency, µM, without a hit: max response, negative = inhibition, actives largely listed as inhibitors; hit rate 0.43% among 200,000; AID 1478, 2009; purified cruzain, Z-FR-AMC fluorescence, 0.01% Triton;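 also: plate controls were neutral wells for no effect and buffer without enzyme for full effect; nearly all actives have a fitted effect of over 40% in size; top concentration of the series not given in the record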
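Z-FR-AMC hydrolysis (2 uM substrate) by cruzain (1.5 nM) monitored kinetically at ex 360/em 450 nm after 15 min room-temperature compound exposure; 0.01% Triton X-100, pH 5.5, 5 mM DTT.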
Lassa entry inh = qHTS for Inhibitors of binding or entry into cells for Lassa Virus. AID 540256, 2011. Lassa virus pseudotype entry inhibition, cell reporter; control for the full effect not named in the record. hit rate 1.2% among 300,000. Potency, µM (top dose mostly 37.9 µM), for the others: at the top dose activity change, negative = inhibition, usual class: inhibitors; active means well fitted inhibition curve with a large enough effect; inconclusive means small, poorly fitted or top-dose-only effect, or effect the other way; inactive means flat fitted curve, though single readings scatter; tested in HEK293 cells; also: % is scaled to controls: 0 for no effect and ±100 for the full control effect; nearly all actives have a fitted effect of over 50% in size; luciferase read-out
RE007 growth inh = qHTS Assay for Inhibitors of the HIV-1 protein Vpr; S. pombe RE007 Vpr strain, BacTiter-Glo ATP luminescence, 24 h; control for the full effect not named in the record; Potency, µM (series often up to 92.2 µM), inactives show at the highest dose activity change, negative = less growth; hit rate 0.21% among 360,000; active = well fitted falling curve with a large enough effect; inconclusive = small, poorly fitted or top-dose-only effect; inactive = no such curve, though single readings can be large or run the other way;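 also: % is scaled to controls: 0 for no effect and ±100 for the full control effect; nearly all actives have a fitted effect of over 50% in size; the assay follows cell death caused by Vpr and the record does not say whether a fall means rescue or toxicity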
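Fission yeast strain RE007, carrying one chromosomally integrated HIV-1 vpr copy, was seeded at OD 0.01 in PMG+AL medium with 23 nL pinned compound. After 24 h at 30 °C and 99% humidity, viability was read by BacTiter-Glo luminescence.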
* = called active by the depositor; ? = inconclusive; . = not tested or not shown; & = joins results of further samples; [ ] = dose if it differs, or a comment. Unless noted, calls follow the shape of the dose curve; as a rule, active = well fitted curve in the direction sought with a large enough effect; inconclusive = small, poorly fitted or top-dose-only effect, or another doubt; inactive = no such curve, though single readings can be large; an effect the other way counts as inactive or inconclusive. Potency is read from the fitted curve at half-maximal effect.

SMILES	NS1 function inh	StopGo reporter	Cruzain noTriton	SARS PLpro yeast	Marburg entry inh	Cruzain inh Det	Lassa entry inh	RE007 growth inh
O=Cc1cn(-c2ccccc2)nc1-c1cc2c(ccc3ccccc32)oc1=O	5%	-12%	-8%	0%	-5%	-6.3%	9%	2%
Cn1cc(S(=O)(=O)Cc2ccc(F)cc2)c2ccccc21	10%	4%	.	5%	.	.	.	3%
Cc1ccc2c(=O)c(C(=O)c3cccc(Cl)c3)cn(CC(=O)Nc3ccccc3C(F)(F)F)c2n1	.	-18%	2%	.	.	0.1%	6%[46.1 µM]	.
Cc1cn(C)c(CC(=O)N2CCN(c3cccc(C(F)(F)F)c3)CC2)c1C(=O)O	.	-23%	16%	.	.	-3.5%	19%[46.1 µM]	.
COc1ccccc1-c1nnc(SCC(=O)Nc2ccc(N3CCOCC3)cc2)n1C	.	22%	.	.	17%	.	14%	29%
COc1cc(S(=O)(=O)N2CCOCC2)ccc1N	7%	0%	.	1%	-10%[46.1 µM]	.	24%	-1%
Nc1nonc1-n1nnc(C(=O)N/N=C/c2ccc(OCc3ccccc3F)cc2)c1CN1CCCCC1	-23%	-5%	.	-8%	.	.	.	-3%
COc1ccc(NC(=O)NC(c2ccccc2)c2ccccc2)c(OC)c1	-5%	-5%	.	3%	20%[46.1 µM]	.	?	12%
CC(C)(C)OC(=O)N1CCC(c2c(C(=O)N3CCN(C4CCCCC4)CC3)cnn2-c2ccccc2)CC1	-11%	-20%	.	-2%	.	.	.	?
CCOC(=O)c1[nH]c(C)c(C(=O)NCc2ccc(Cl)cc2)c1C	1%	0%	-24%	-1%	-21%	1.0%	16%[14.3 µM]	8%
C/C(=N\NC(=O)c1nnn(-c2nonc2N)c1CN(C)c1ccccc1)c1ccccc1O	-4%	21%	.	27%	8.9µM*	.	?	0%
CC(=O)c1ccc(-n2ccnc2)cc1	2%	2%	.	-1%	-1%	.	?	-10%
CSc1ncccc1C(=O)Nc1nc2ccc(S(C)(=O)=O)cc2s1	.	2%	.	-2%	9%[46.1 µM]	.	-15%[46.1 µM]	-12%
CC(=O)Oc1cc(OC(C)=O)c2c(=O)c(-c3ccc4c(c3)OCCCO4)c(C)oc2c1	2%	0%	.	-4%	?	.	-3%[46.1 µM]	12%
Clc1ccc(-c2nnsc2SCc2ccccc2)cc1	0%	32%[activator]	0%	-6%	4%	0.2%	-15%	-21%
Cc1ccc2c(c1)c1c3n2CCN(C(=O)CCl)C3CCC1 (centres undefined)	-25%	?	.	7%	?	.	?	8%
O=C(CC1Nc2cccc3cccc(c23)NC1=O)Nc1ccc(F)cc1 (centres undefined)	15%	8%&-23%	-7%	-2%	-8%&-8%[46.1 µM]	-11%	22%[46.1 µM]	-3%
COc1ccc(NC(=O)CC23CC4CC(CC(Br)(C4)C2)C3)c(OC)c1	-1%	6%	.	-1%	?	.	4%[46.1 µM]	5%
CCCCN(CCCC)Cc1ccc(C(=O)NNC(=O)Nc2ccc(Cl)cc2)o1	.	-11%	.	0%	?	.	?	-13%
C=CCn1c(NCc2c[nH]c3ccccc23)nc2ccccc21	-1%	23%	1%	14%	?	0.1%	?	-1%
Cc1sc2ccccc2c1CC1=NCCN1	-5%	?	-6%	1%	?	-3.6%	13%	-5%[18.4 µM]
Cc1csc(NC(=O)c2cc3c(C)nn(Cc4ccccc4Cl)c3s2)n1	3%	?	25µM*	2%	?	-6.2%	-24%	1%
CCOC(=O)/C(N=O)=C(\O)C1CCN(C(=O)OCC)CC1	-3%	-6%	-3%	11%	0%	3.5%	3%	15%
CN1CCN(c2nc3c(c(=O)[nH]c(=O)n3C)n2Cc2ccccc2)CC1	7%	-4%	.	3%	-1%	.	-10%	-14%
COc1ccccc1C1=NC(c2ccc(F)cc2)N=C1C (centres undefined)	.	15%	.	-10%	?	.	?	-11%
CCN(CC)S(=O)(=O)c1nnc(NC(=O)COc2cccc(C)c2)s1	.	-3%	-1%	.	.	0.0%	-3%[46.1 µM]	.
CC(=O)Nc1c(C)nn(-c2ccccc2)c1N1CCC(C(=O)Nc2ccc(C)cc2Cl)CC1	.	-4%	?	.	.	3.5%	-3%[46.1 µM]	.
CCOc1ccc(CN(C(=O)c2oc3cc(C)ccc3c2C)C2CCS(=O)(=O)C2)cc1 (centres undefined)	19%	-20%	?	-4%	?	-4.4%	13µM*	-3%
COc1ccccc1C(=O)Oc1cc(N)n(S(=O)(=O)c2ccccc2)n1	7%	19%	.	-2%	.	.	.	10%
CCOc1ccc2nc(N(CCN(C)C)C(=O)/C=C/c3cccs3)sc2c1	-1%	-7%	.	0%	.	.	.	-7%
CCN1C(=O)c2cccc3c(NC(=O)c4ccc(S(=O)(=O)N(C)C)cc4)ccc1c23	-4%	-1%	?	-8%	-23%	-1.3%	?	5%
Cc1cccc(NS(=O)(=O)c2ccc(C)c(NS(=O)(=O)c3cccs3)c2)c1	.	64%[activator]	.	7%	?	.	14%	48%
Cc1ccc(NC(=O)c2cc(S(=O)(=O)N3CCCCC3)ccc2N2CCOCC2)cc1F	3%	15%	1%	29%	?	-3.6%	?	1%
Cc1oc(-c2ccc(Cl)cc2)nc1CN1CCCC(C(=O)NCCc2ccccc2)C1 (centres undefined)	.	-8%	1%	.	22%[46.1 µM]	-0.6%	8%[46.1 µM]	.
Cc1ncc(S(=O)(=O)c2ccccc2)c(-c2ccccc2)n1	-5%	-18%	14%	12%	-18%	2.0%	2%	-10%
Cc1nc2ccccn2c1/C(O)=C1\C(=O)C(=O)N(CCN(C)C)C1c1cccnc1 (centres undefined)	-23%	-10%	-16%	2%	-1%	-7.6%	-7%	12%
O=C(Nc1nnc(C2CC2)s1)C1CCCCN1S(=O)(=O)c1ccccc1 (centres undefined)	-4%	-14%	.	3%	-20%	.	10%	6%
O=c1[nH]c2ccc(NCc3ccccc3F)cc2[nH]1	.	0%	-6%	.	-25%[46.1 µM]	1.2%	20%[46.1 µM]	.
COc1ccc(CNC(=O)CN(C(=O)c2cc3sccc3n2C)C2CCCC2)cc1	-23%	.	-11%	2%	-21%	-4.7%	?	-3%
CCNS(=O)(=O)c1ccc(CCC(=O)Nc2cc(Cl)ccc2Oc2ccccc2)cc1	?	?	1%	-3%	?	0.7%	?	13%
O=C(Nc1ccc(Cl)cc1)Nc1cnccn1	-31%	38%[activator]	.	-2%	10%	.	15%	1%
Cc1cccc(NC(=O)COC(=O)CC2CCCC2)c1C	.	-1%	.	1%	0%[46.1 µM]	.	19%	5%
O=C(NCC1CCCN(C(=O)c2cscn2)C1)c1ccccc1Cl (centres undefined)	5%	20%	.	5%	5%[46.1 µM]	.	10%[46.1 µM]	5%
CN1C(=O)C(=Cc2cn(CC(=O)N3CCCCC3)c3ccccc23)C(=O)N(C)C1=O	0%	2%	.	2%	-1%[46.1 µM]	.	8%[46.1 µM]	-3%
CCOC(=O)Cn1c(S(=O)(=O)Cc2ccccc2Cl)nc(-c2ccccc2)c1-c1ccccc1	?	1%	-11%	4%	5.2µM*	-5.1%	12µM*	-4%
O=C(NCc1ccc2c(c1)OCO2)c1ccc2c(c1)N(Cc1ccccc1)C(=O)c1ccccc1S2=O (centres undefined)	.	-6%	-19%	.	0%[46.1 µM]	0.1%	25%[46.1 µM]	.
CC(C)(C)C(=O)[C@@H]1[C@@H]2C(=O)N(C3CCCCC3)C(=O)[C@@H]2[C@H]2c3ccccc3C=CN12	?	6%	?	-2%	-11%	1.6%	16%	2%[3.69 µM]
CCCCCCCn1c(=O)c(C(=O)Nc2cnccn2)c(O)c2ccccc21	-71%	-17%	.	4%	?	.	?	-11%
O=C(CSc1nnc(NC(=O)c2ccco2)s1)NC1CCCCC1	-3%	16%	-14%	-4%	20%	3.9%	4%	3%
COc1ccc(C(=O)OCC(=O)NC2CCCC2)c(OC)c1	-2%	36%[activator]	.	-2%	.	.	.	-10%
Cc1cccc(N2CCN(C(=O)Cc3ccc(-n4c(=O)[nH]c5ccsc5c4=O)cc3)CC2C)c1 (centres undefined)	-8%	?	6%	9%	5%	-2.3%	13%	-1%
N=c1n(CC(=O)c2cccc([N+](=O)[O-])c2)c2ccccc2n1Cc1ccccc1	.	?	.	-4%	?	.	.	4%
COc1ccccc1N1CCN(/N=C/c2cc(Br)ccc2F)CC1	-10%	17%	.	27%	.	.	.	-18%
CCC(C)(C)NC(=O)Cc1ccc(Cl)cc1	6%	19%	.	1%	-7%[46.1 µM]	.	?	8%
C=CCn1c(SCC(=O)NCc2ccccc2)nnc1-c1cc(Br)ccc1O	-14%	-23%	-9%	10%	-2%	-1.7%	-7%	-1%
O=C(Nc1ncc(Cc2cccc(Cl)c2)s1)C1=NCCN1	-28%	.	8%	-2%	-32%	0.8%	-12%	-22%
Cc1cc(C)c(C)c(S(=O)(=O)N2CCC(C(=O)Nc3ccccc3N3CCOCC3)CC2)c1C	-9%	-18%	8%	7%	?	-5.1%	9%	31%
COc1cc(Cl)c(C)cc1NC(=O)c1ccc2c(Cl)c3c(nc2c1)CCC3	.	19%	-1%	.	13%[46.1 µM]	-0.6%	13%[46.1 µM]	.
COc1ccc(OC)c(NC(=O)CSc2nnc(CNC(=O)c3ccco3)o2)c1	4%	0%	-10%	-2%	-9%	2.7%	-1%	4%
CCCS(=O)(=O)C(=C(Nc1ccccc1)Nc1ccccc1)S(=O)(=O)CCC	-1%	.	-2%	7%	13%	-3.0%	-8%	-7%
CN(C)S(=O)(=O)c1cccc(C(=O)c2nccn2C)c1	.	-3%	.	0%	10%	.	16%	7%
CC1CC(C)CN(C(=O)COC(=O)CCCN2C(=O)c3cccc4cccc(c34)C2=O)C1 (centres undefined)	-15%	-5%	.	3%	1%	.	14%	2%
COc1cc2c(cc1OC)CN(CC(=O)Nc1ccc(C)c(C)c1)CC2	-5%	0%	.	3%	.	.	.	-8%
